Mtb MbtI inh: inhibitors of Mycobacterium tuberculosis siderophore enzyme MbtI; AID 493033; purified MbtI enzyme, fluorescence intensity read-out; P9WFX0; inhibition, %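 (about 17 µg/mL by stock and volumes)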; 0.89% of 100,000 active;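 active = above 50% in both replicates, above 80% if mildly self-fluorescent; inactive = the rest, strongly fluorescent compounds included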;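 note: 0% = mean of negative and 100% = mean of positive controls; one replicate is shown; some compounds called inactive have numbers as strong as hits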
Target sequence (P9WFX0 whole entry, looked up): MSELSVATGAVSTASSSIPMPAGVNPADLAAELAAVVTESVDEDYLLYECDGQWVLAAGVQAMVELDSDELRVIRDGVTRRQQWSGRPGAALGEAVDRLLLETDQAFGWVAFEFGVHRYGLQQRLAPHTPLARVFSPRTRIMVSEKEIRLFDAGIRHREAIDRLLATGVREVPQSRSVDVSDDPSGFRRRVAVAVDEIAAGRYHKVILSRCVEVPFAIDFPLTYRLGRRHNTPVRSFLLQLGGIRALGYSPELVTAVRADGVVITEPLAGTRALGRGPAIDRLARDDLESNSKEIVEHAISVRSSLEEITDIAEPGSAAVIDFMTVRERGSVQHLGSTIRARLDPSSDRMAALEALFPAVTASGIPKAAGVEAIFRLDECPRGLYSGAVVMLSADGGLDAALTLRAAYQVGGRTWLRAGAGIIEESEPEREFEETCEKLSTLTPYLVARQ
PV pol inh: poliovirus RNA polymerase inhibition; 0.66% of 150,000 active; % elongation, % (compound at 16.7 µg/mL); poliovirus polymerase elongation, fluorescence polarization; active compounds read low; P03300; in the data active = % elongation below about 90%; note: some results filed as inactive read as strong as hits
Target sequence (P03300 1749-2209 limits assumed): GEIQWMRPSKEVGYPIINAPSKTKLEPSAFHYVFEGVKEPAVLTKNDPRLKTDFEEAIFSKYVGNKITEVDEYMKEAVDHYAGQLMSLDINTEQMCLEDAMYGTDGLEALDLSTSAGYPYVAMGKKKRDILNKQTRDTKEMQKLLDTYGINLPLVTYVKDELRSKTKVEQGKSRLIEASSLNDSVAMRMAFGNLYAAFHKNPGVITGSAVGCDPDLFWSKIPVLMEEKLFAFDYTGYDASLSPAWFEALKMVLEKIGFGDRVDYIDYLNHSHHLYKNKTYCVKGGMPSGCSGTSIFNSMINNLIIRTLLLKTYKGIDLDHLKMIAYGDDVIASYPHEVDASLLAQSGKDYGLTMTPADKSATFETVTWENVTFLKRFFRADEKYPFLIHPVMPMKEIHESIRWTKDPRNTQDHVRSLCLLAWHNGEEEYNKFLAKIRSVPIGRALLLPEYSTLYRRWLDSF
Mtb MenB inh: inhibitors of Mycobacterium tuberculosis MenB enzyme. P9WNP5. MenB enzyme assay, absorbance read-out; some hits fall short of the stated cut. inhibition, %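 (about 12 µg/mL by stock and volumes)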. 0.43% of 100,000 active;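 active = mean of two replicates above 30%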;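 note: 0% = no compound and 100% = wells with inactive enzyme; the first replicate is given; strong numbers were not always called active; inactives centre near -10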
PV pol inh intensity: also measured in PV pol inh; calls as there; % elongation; measured here: total intensity read-out; formula for this scale not given here;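 total fluorescence in place of polarization; lower means less elongation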
* marks the source's active call; other numbers are inactive results; nt = not tested or not shown; & = joins results of further samples.

SMILES	Mtb MbtI inh	PV pol inh	PV pol inh intensity	Mtb MenB inh
Cc1ccn2c(=O)cc(CNCC3(N4CCCCC4)CCCCC3)nc2c1	68	101	110	-20
S=C(NC1CC1)N(Cc1ccco1)Cc1cccs1	-15	104	110	-22
C/C(=N\NC(=O)C1CC1)c1ccc(Cl)s1	16	103	105	-18
Nc1ccc(S(=O)(=O)Nc2ncccn2)cc1	-7&-9	102&101	104&102	7&9
NC(=O)c1ccc(NC(=O)CCC(=O)N2CCN(S(=O)(=O)c3ccc(Cl)cc3)CC2)cc1	10	102	110	6
O=C(Nc1ccc(NC(=O)c2cccnc2)cc1)c1cccnc1	-7	105	102	nt
COC1=C2C[C@@H](C)C[C@H](OC)[C@H](O)[C@@H](C)/C=C(\C)[C@H](OC(N)=O)[C@@H](OC)/C=C\C=C(/C)C(=O)NC(=CC1=O)C2=O	-5	102&100	104&102	4
CC(C)C(=O)N1N=C(c2ccccc2)CC1(O)C(F)(F)F (stereo not given)	-3	101	105	-13
COc1cccc(-c2nnc(NC(=O)c3ccc(S(=O)(=O)N(Cc4ccccc4)C(C)C)cc3)o2)c1	11	100	102	10
O=C1CC(c2ccccc2)CC(O)=C1C=NCc1cccc(C(F)(F)F)c1 (stereo not given)	-2	100	96	-16
Cc1ccc(Cn2nccc2NC(=O)c2cccnc2Nc2ccccc2F)o1	-2	126	144	-40
CC(C)NC(=O)NNc1c(Cl)cccc1Cl	-4	101	102	-2
Cc1cc(C(=O)/C(C#N)=N/Nc2cccc(Cl)c2)n(C(C)(C)C)n1	-36	100	104	-247
Oc1ccc(Br)cc1C=Nc1ccc2[nH]ncc2c1	-271	102	105	-34
CC1(C(=O)NC2CCCCC2)Cc2ccccc2C(=O)N1Cc1cccnc1 (stereo not given)	6	100	102	0
CCOc1ccc(CN(Cc2ccco2)C(c2ccc(C(F)(F)F)cc2)c2nnnn2CCOC)cc1 (stereo not given)	-2	102	102	-92
COCCN1C(=O)C(C)SC1c1ccc(Br)cc1 (stereo not given)	-9	nt	nt	0
CCCc1n[nH]c(=S)n1N	69*	101	97	-40
O=C(Nc1ccccc1C(=O)OCC(=O)N1CCOCC1)c1ccco1	185	103	108	-16
CCOc1nc(NC)nc(N(C#N)CN2C(=O)c3ccccc3C2=O)n1	-19	102	102	-4
COc1cccc(NC(=O)CN(C)CC(=O)Nc2ccc3c(c2)CCC3)c1	-9	nt	nt	-3
CC1CN/C(=C/C(=O)c2ccccc2)C(=O)N1 (stereo not given)	0	105	104	-87
CCCN(CCC)C(=O)CCc1ccccc1	-8	98	102	-20
Nc1nnc(SCCCc2ccccc2)s1	-8	102	99	-37
CCCCn1nnnc1SCC(=O)c1cc(OC)ccc1OC	4	101	103	0
Cc1cc2cc(CNC(=O)C34CC5CC(CC(C5)C3)C4)ccc2n1C	-8	103	101	-25
O=C(NCc1cccs1)c1ccc2ncsc2c1	-12	107	107	-7
Cc1ccc2c(c1)c1c3n2CCN(CC#N)C3CCC1 (stereo not given)	1	101	102	-74
C=CCc1cc2c(C)cc(=O)oc2c(C)c1O	nt	101	106	-31
Cc1cc(COc2ccccc2OCCN2CCN(C)CC2)no1	-9	100	99	-4

An excerpt of these results, comma-delimited.
Compound,Mtb MbtI inh,PV pol inh,PV pol inh intensity,Mtb MenB inh
COCCN1C(=O)C(C)SC1c1ccc(Br)cc1 (stereo not given),-9,nt,nt,0
CCCc1n[nH]c(=S)n1N,69*,101,97,-40
O=C(Nc1ccccc1C(=O)OCC(=O)N1CCOCC1)c1ccco1,185,103,108,-16
CCOc1nc(NC)nc(N(C#N)CN2C(=O)c3ccccc3C2=O)n1,-19,102,102,-4
COc1cccc(NC(=O)CN(C)CC(=O)Nc2ccc3c(c2)CCC3)c1,-9,nt,nt,-3
CC1CN/C(=C/C(=O)c2ccccc2)C(=O)N1 (stereo not given),0,105,104,-87
CCCN(CCC)C(=O)CCc1ccccc1,-8,98,102,-20
Nc1nnc(SCCCc2ccccc2)s1,-8,102,99,-37
CCCCn1nnnc1SCC(=O)c1cc(OC)ccc1OC,4,101,103,0
Cc1cc2cc(CNC(=O)C34CC5CC(CC(C5)C3)C4)ccc2n1C,-8,103,101,-25
O=C(NCc1cccs1)c1ccc2ncsc2c1,-12,107,107,-7
Cc1ccc2c(c1)c1c3n2CCN(CC#N)C3CCC1 (stereo not given),1,101,102,-74
C=CCc1cc2c(C)cc(=O)oc2c(C)c1O,nt,101,106,-31
Cc1cc(COc2ccccc2OCCN2CCN(C)CC2)no1,-9,100,99,-4

Further entries.
SMILES	Mtb MbtI inh	PV pol inh	PV pol inh intensity	Mtb MenB inh
CCc1cc2c(cc(C(=O)NCc3ccccc3)n2C)s1	5	105	105	-17
O=C(OCC(=O)N1N=C2/C(=C/c3ccco3)CCCC2C1c1ccco1)c1cccc(S(=O)(=O)N2CCOCC2)c1 (stereo not given)	6	104	111	6
Cc1ccc(N=Cc2cn(-c3ccccc3)nc2-c2ccccc2)cc1	0	102	100	-25
CN(Cc1ccccc1)C(=O)c1cccc(N2C(=O)C3C4C=CC(C4)C3C2=O)c1 (stereo not given)	-26	100	101	-2
Cc1cc(C)cc(C(=O)Nc2ccc(-c3ccc(N4CCOCC4)nn3)cc2)c1	8	105	102	-14
CC(C)(C)OC(=O)N1CCC(c2cc(=O)n3[nH]cc(C(=O)Nc4ccc(F)c(Cl)c4)c3n2)CC1	-49	103	108	-4
CNc1ccccc1C(C)(C)c1cc(-c2ccccc2C)no1	7	106	108	-16
O=C(/C=C/c1ccco1)Nc1ccccc1C(=O)OCC(=O)c1cccs1	52	104	115	-43
CCOC(=O)c1cc(-c2ccc(F)cc2)n(CC(=O)N2CCn3c2nc2ccccc23)c1C	-20	99	101	-1
COC(=O)C1=NNC(C(=O)OC)=NN1	7	100	102	-16
CC(C)c1nc2ccccc2n1CCc1ccccc1	-1	95	89	-18
NNC(=O)CSc1nnc2c(n1)[nH]c1ccccc12	-2	104	106	-5
COC(=O)CC1SC(=O)NC1=S (stereo not given)	84*	60	130	-52
COCC(=O)N(Cc1ccccc1)c1ccccn1	8	104	100	-24
O=C(Nc1cccc(C(F)(F)F)c1)/C(=C\c1cccs1)c1ccsc1	-9	104	113	-17
CCn1c(=O)cc(Nc2ccc(C)c(C)c2)[nH]c1=O	4	102	104	4
CCCNC(=O)C1CCN(c2nn3cc(-c4ccc(F)cc4)nc3s2)CC1	-18	100	102	-1
CN=C(NC)SC1CC(=O)N(c2ccccc2F)C1=O (stereo not given)	nt	103	104	0
O=C(N[C@@H](Cc1ccccc1)C(=O)N1CCN(c2ncccn2)CC1)c1ccc(Cl)cc1	-5	106	110	-40
C=CCn1c(SCC(=O)c2ccc(OC)cc2)nnc1-c1cccs1	1	101	101	0
CN(C)c1ccc(/C=N/NC(=O)c2ccn(C)n2)cc1	22	101	102	-69
COc1cc(OC)cc(C(=O)N(C)CCOc2ccc(Cl)cc2)c1	-10	108	113	-7
CC(C)(C)C(=O)COC(=O)C1CC(=O)N(c2ccccc2)C1 (stereo not given)	nt	103	95	9
O=C(CSc1nnc(Cc2cc(=O)[nH]c(=O)[nH]2)n1-c1ccc(Cl)cc1)N1CCCCC1	-1	104	104	-18
O=C(O)c1cc(=O)[nH]c2ccc(S(=O)(=O)N3CCOCC3)cc12	-2	105	102	2
Cc1onc(-c2ccccc2)c1C(=O)N(Cc1ccccc1)Cc1ccccc1	-11	104	99	-5
C=CCn1c(CC(C)(C)C)nc2ccccc21	-3	100	103	9
O=C(OCc1nc2ccccc2s1)c1cccc(S(=O)(=O)N2CCCC2)c1	-2	99	104	-7
O=C(CN1C(=O)/C(=C/c2ccccc2F)Oc2ccccc21)NCCCN1CCCC1	-82	98	103	14
O=C(O)c1ccccc1C(=O)NCCCn1ccnc1	nt	105	107	-5
Cc1ccc(SCCC(=O)O)cc1	-14	102	99	nt
O=C1CC(c2ccco2)CC(O)=C1C=NCC1CCNCC1 (stereo not given)	15	100	102	-5
COC(=O)CCCN=C1SCCN1Cc1ccccc1	8	101	93	-1
Cn1cccc1Cc1nnc(SCC(=O)NCc2ccco2)n1CCc1ccccc1	0	102	102	-5
CSc1cc(C(C)(C)C)nn1S(=O)(=O)c1ccc(F)cc1F	-12	106	110	-12
Cc1ccc(-c2nnc(-c3ccccc3)o2)cc1	nt	104	96	-19
O=S1(=O)N=C(Nc2ccccc2)c2ccccc21	-1	101	103	nt
Cc1cc(C)cc(C(=O)Nc2cc(C)c3c(=O)oc4ccccc4c3n2)c1	18	100	99	6
CN1/C(=C\C(=O)Cn2nnc(-c3ccccc3)n2)C(C)(C)c2ccccc21	-8	107	111	-28
CCn1c(-c2ccccc2)n[nH]c1=S	24&42	101&102	96&105	-17&-42
Cc1cc(Cl)nc(Cl)c1C(N)=O	nt	103	100	1
COc1ccc(C(C)(C)C)cc1NC(=O)COC(=O)C(C)C	4	104	100	-29
CCC(=O)c1ccc(OCC(=O)N2c3ccccc3CC2C)cc1 (stereo not given)	-15	105	105	nt
Cc1cc(C(=O)CSc2nc(N)nc(N)n2)c(C)n1C1CCS(=O)(=O)C1 (stereo not given)	4	101	104	-1
CCN(CC)C(=O)COc1coc(CN2CCN(c3ccccc3)CC2)cc1=O	12	101	104	1
O=C(Cc1ccc(-c2ccccc2)cc1)N1CCN(CC(=O)N2CCCC2)CC1	14	100	99	0
CC(C)(C)NC(=O)CSc1nc2ccc(N3C(=O)c4ccccc4C3=O)cc2s1	nt	102	109	-22
C#CCOC(=O)Nc1cnc(N2CCOCC2)c(C(F)(F)F)c1	-68	100	98	-7
CCOC(=O)CSc1nc(=O)cc(N)n1CCc1ccccc1	8	103	99	-27
CC(C)=NOC(=O)c1ccc(CSc2ccc(C(F)(F)F)cn2)o1	10	99	100	11
O=c1[nH]c(O)c(C=Nc2cc(C(F)(F)F)ccc2N2CCCCC2)c(=O)[nH]1	12	104	96	4
NC(=O)CN1C(=O)COc2ccc(Cl)cc21	-8	102	101	-25
O=S(=O)(NC(c1ccccc1)c1ccccc1)c1ccc(-n2cnnn2)cc1	-9	100	103	4
Cn1ccsc1=NC(=O)c1ccc(S(C)(=O)=O)cc1	-2	102	93	-7
O=C(Nc1cccnc1Cl)c1ccc(Oc2ccccc2)cc1	-10	104	107	nt
CC(=O)N1c2ccc(S(=O)(=O)N(C)c3ccc(C)cc3)cc2CC1C (stereo not given)	-6	106	99	-26
O=C1c2ccccc2S(=O)(=O)N1Cc1cccc(Cl)c1	-14	102	103	nt
CC1(C)CC(=O)C(C=NC(CO)(CO)CO)=C(O)C1	nt	107	108	-2
CC1=C(O)C(=O)OC1c1c(F)cccc1Cl (stereo not given)	1	101	94	6
CC1(C)CC(=O)C2=C(C1)N(c1ncn[nH]1)C(N)=C(C#N)C2c1ccsc1 (stereo not given)	-1	102	106	-5
Further results.
SMILES	Mtb MbtI inh	PV pol inh	PV pol inh intensity	Mtb MenB inh
C=CCSc1n[nH]c(=O)n1-c1cccc(Cl)c1	-5	106	106	3
c1csc(-c2csc3nc(CN4CCOCC4)nc(Sc4nnc(C5CC5)o4)c23)c1	0	102	101	-17
CC1=C/C(=N/NC(=O)Cc2csc(N3CCOCC3)n2)CC(C)(C)C1	-5	101	105	-3
C=CCNC(=O)CN1CCN(S(=O)(=O)c2ccccc2C(F)(F)F)CC1	-3	104	105	-9
CC1=CS/C(=C(/C#N)C(=O)N2CCCCC2)N1c1ccccc1	-11	98	102	10
CN(C)Cc1ccccc1C#N	-10	103	111	-10
c1ccc2c(c1)COC(CN1CCOCC1)OC2	-6	103	103	-25
CSc1nnc(CNC(=O)NCc2ccccc2)n1C(C)C	7	105	103	-23
O=C(Nc1ccccc1)N1CCn2cccc2C1c1ccccc1 (stereo not given)	4	101	110	8
CN(C)CCC(c1ccccc1)c1ccccn1 (stereo not given)	-8&-15	99&100	101&100	2&-6
COc1cc(/C=C2/C(=O)ON=C2C)cc(Cl)c1OCc1ccc(C)cc1	4	102	109	-22
CCOC(=O)C1=C(c2ccccc2)N=C2SCC(=O)N2C1c1ccc(OCC)cc1 (stereo not given)	3	98	95	-52
N#CCSc1nc(N)c(C#N)c(-c2cccc(F)c2)c1C#N	nt	110	110	-11
CCCCNC(=O)Cn1ncc2c(=O)oc3ccc(C)cc3c21	-5	99	102	-34
COc1ccccc1CN(C)C(=O)c1cnc(C)cn1	-7	103	111	-9
O=C(c1ccco1)c1cn(Cc2ccc(Cl)cc2)c2ccccc12	15	101	102	-29
CCOC(=O)CCc1c(C)c(C#N)c2nc3ccccc3n2c1C	nt	101	108	1
O=C(c1nn(Cc2ccccc2)c(=O)c2ccccc12)N1CCCCC1	4	105	107	-13
O/N=C/c1c(F)cccc1F	-13	105	102	-16
CN1C2=C(C(=O)CCC2)C(c2ccc(O)c(Cl)c2)C2=C1CCCC2=O	10	100	106	-86
N#CCCn1cc(C(=O)N2CCCCC2)c(-c2ccccc2)n1	14	107	106	-1
CSc1nc(-c2ccccc2)nc2[nH]ccc(=O)c12	0	102	105	15
COCCNC(=O)c1ccc2c(c1)CCN2S(=O)(=O)c1ccc(C)cc1	-13	103	99	11
COc1cc(NC(=O)c2ccccc2)c(OC)cc1NC(=O)CN1CCCCC1	-12	101	101	-35
O=C(c1cccc2ccccc12)N1CCc2ccccc21	nt	101	102	-7
Cc1cc(NC(=O)Cn2cc(S(=O)(=O)N(Cc3ccccc3)Cc3ccccc3)ccc2=O)no1	-8	106	107	-32
